Screening data deposited in PubChem BioAssay by National Center for Advancing Translational Sciences (NCATS).
VDR inh – vitamin D3 receptor (human) inhibition; P11473; AID 504847; 400,000 tested, 0.93% active; VDR-SRC2-3 peptide fluorescence polarization, 2 h; Potency, µM, for the others: max response, negative = inhibition, actives largely listed as inhibitors; active means well fitted inhibition curve with a large enough effect; inconclusive means small, poorly fitted or top-dose-only effect, or another doubt; inactive means no such curve, though single readings can be large or run the other way; further: series mostly up to about 120 µM
Target sequence (P11473 whole entry, looked up): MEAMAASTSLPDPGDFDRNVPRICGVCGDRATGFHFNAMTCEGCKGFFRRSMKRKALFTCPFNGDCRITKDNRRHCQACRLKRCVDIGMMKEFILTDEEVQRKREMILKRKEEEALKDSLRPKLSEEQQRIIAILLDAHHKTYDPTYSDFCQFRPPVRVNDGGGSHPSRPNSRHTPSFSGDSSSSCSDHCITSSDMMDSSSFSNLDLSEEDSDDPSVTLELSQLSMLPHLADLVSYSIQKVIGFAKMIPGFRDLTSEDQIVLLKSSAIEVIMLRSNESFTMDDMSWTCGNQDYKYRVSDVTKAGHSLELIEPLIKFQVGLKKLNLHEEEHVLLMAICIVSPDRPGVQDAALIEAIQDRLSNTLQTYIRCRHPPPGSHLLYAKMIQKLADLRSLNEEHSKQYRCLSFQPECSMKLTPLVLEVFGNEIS
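Measured by FP: displacement of SRC2-3 coactivator peptide from VDR by library compounds, following a two-hour ambient incubation.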
Starred values were filed as active, the others as inactive; ? = inconclusive; ! = a repeat was not active. On the % scale 0 is the no-effect control and ±100 the full control effect; potency means the concentration at half of the fitted maximal effect. Some of the compounds tested, so the mix of outcomes need not match the whole.

VDR inh | SMILES
-10% | Cc1ccc(NS(=O)(=O)c2ccc(C(=O)NCc3ccncc3)cc2)cc1
5% | Cc1nnc(Sc2cc(C(=O)NCCCOC(C)C)c3ccccc3n2)s1
? | Cc1[nH][nH]c(=O)c1C(c1ccc([N+](=O)[O-])cc1)c1c(C)[nH][nH]c1=O
25% | CCN(CC)S(=O)(=O)c1cccc(-c2nnc(SCC(=O)N3CCC(C(=O)O)CC3)n2N)c1
-12% | Cc1ccc(S(=O)(=O)CC(C)(O)CS(=O)(=O)c2ccc(C)cc2)cc1
-14% | COc1ccc(OC)c(CCNC(=O)CCc2cn(C)c3ccccc23)c1
-6% | O=C(Cn1c2c(c(-c3ccccc3)cc1=O)CCCC2)N1CCCCCC1
-2% | CCCCN1C(=O)C(O)(CC(=O)c2ccc(C(C)(C)C)cc2)c2ccccc21 (stereo unspecified)
-1% | COc1ccc(C(=O)N2CCCC(Nc3ccc(C)c(C)c3)C2)cc1F (stereo unspecified)
-2% | COc1cc(C(=O)NCC(=O)NNC(=O)C2COc3ccccc3O2)cc(OC)c1OC (stereo unspecified)
9% | CCN(CC)CCn1c2c(c(SCC(=O)Nc3cccc4ccccc34)nc1=O)CCC2
10% | O=C(Nc1ccc(O)cc1C(=O)O)c1cccc(Br)c1
-12% | Clc1ccc(C2=Nn3c(nnc3-c3n[nH]c4c3CCC4)SC2)cc1
-9% | CC(=O)c1cccc(NC(=O)CSc2nnc(C(C)N(C)C)n2-c2ccc(F)cc2)c1 (stereo unspecified)
15% | OC(CC#CCN1CCCC1)(c1ccccc1)c1ccccc1
10% | COCCn1c(SCC(=O)N2CCCC2)nnc1-c1ccoc1C
7% | Cn1nc(C(=O)Nc2cccc(C(F)(F)F)c2)c2c1-c1ccccc1S(=O)(=O)C2
-10% | COc1ccc(C(C(=O)NC(C)(C)C)N(C(=O)CCC(=O)Nc2cc(C)on2)c2ccc(C)c(C)c2)cc1 (stereo unspecified)
14% | CN(C)CCOC(=O)C12CC3CC(C1)CC(C(=O)OCCN(C)C)(C3)C2
-8% | O=C1[C@H]2[C@@H](c3ccc(F)cc3)N3C(=O)N(c4cccc(Cl)c4)C(=O)[C@@]3(Cc3ccccc3)[C@H]2C(=O)N1C1CCCCC1
-25% | COc1ccccc1C1NC(=O)c2ccccc2O1 (stereo unspecified)
-3% | CNC(=O)CC1C(=O)N(c2ccc(OC)cc2)C(=S)N1NC(=O)c1cccc(F)c1 (stereo unspecified)
-5% | Cc1ccc(-n2nc(C)c3c(C)cc(=O)[nH]c32)cc1
1% | COc1ccc(S(=O)(=O)N2CCCC2CNC(=O)C(=O)NCc2ccccc2Cl)cc1 (stereo unspecified)

Looked up by compound from above, three records:
VDR inh | SMILES
7% | Cn1nc(C(=O)Nc2cccc(C(F)(F)F)c2)c2c1-c1ccccc1S(=O)(=O)C2
1% | COc1ccc(S(=O)(=O)N2CCCC2CNC(=O)C(=O)NCc2ccccc2Cl)cc1 (stereo unspecified)
15% | OC(CC#CCN1CCCC1)(c1ccccc1)c1ccccc1

Later entries
VDR inh | SMILES
-2% | COc1ccccc1CNCCCCCCNCCCCCCCCNCCCCCCNCc1ccccc1OC
-18% | CCCCN1/C(=C/c2cccc[n+]2C)Sc2cc(NC(C)=O)ccc21
-9% | COc1ccc(C(=O)/C=C2/c3ccccc3CC(C)(C)N2C)cc1
10% | CNC(=O)C1CCC(Cn2c(=O)c3sccc3n(CC(=O)Nc3ccccc3)c2=O)CC1 (stereo unspecified)
-13% | COc1cc(C)ccc1OCCCOc1c(Cl)cccc1Cl
19% | CCc1nnc(NC(=O)CSc2ncc(-c3ccccc3)n2CC)s1
-23% | CC(=O)N1c2ccc(S(=O)(=O)N3CCCCC3)cc2CC1C(=O)NCc1ccc(N(C)C)cc1 (stereo unspecified)
0% | COc1ccccc1N(Cc1cc2cccc(C)c2[nH]c1=O)C(=O)c1cccc(Cl)c1
-7% | CCOC(=O)c1c(C)n(OC)c2ccc3c(no[n+]3[O-])c12
0% | COC(=O)N/N=C/c1c(C)c(C(=O)c2ccc(F)cc2)n2ccccc12
-7% | C#CCOCCOCCOCCNc1nc(N2CCOCC2)nc(N2CCN(C(=O)[C@H](CCCCN)n3cc([C@@H](N)C(C)CC)nn3)CC2)n1 (stereo partly specified)
-27% | O=C1NC(=S)N/C1=C/c1cccnc1
-1% | COc1cccc(SCc2noc(C(=O)NCCCN3CCOCC3)c2C(=O)NCCCN2CCOCC2)c1
-10% | COc1ccc(Cc2nnc(NC(=O)Nc3ccccc3)s2)cc1OC
11% | CCOC(=O)c1cccc(NC(=O)c2cc(S(=O)(=O)N3CCCC3)cn2C)c1
50µM*! | Cn1c(NCCN(CCO)CCCc2ccc([N+](=O)[O-])cc2)cc(=O)n(C)c1=O
6% | CCN(CC)CCCN1C(=O)C(=O)/C(=C(/O)c2ccccc2)C1c1cc(OC)ccc1OC (stereo unspecified)
-10% | O=P(O)(CP(=O)(c1ccccc1)c1ccccc1)c1ccccc1O
-14% | Nc1nc(N)nc(-c2ccccc2-c2nc(N)nc(N)n2)n1
14% | CCOc1ncccc1C(=O)N1CCN(S(=O)(=O)c2ccccc2)CC1
-6% | Cc1cccc(NC(=O)C2(c3cccs3)CCOCC2)n1
-8% | O=C(NC(=O)c1ccccc1Cl)C(=O)Nc1ccc(Cl)cc1
-1% | Cc1cccc(NC(=O)/C(=C\c2cccs2)NC(=O)c2ccccc2)c1
-18% | COC(=O)Cc1n[nH]c(=S)[nH]c1=O

Look-ups from above:
`O=C(NC(=O)c1ccccc1Cl)C(=O)Nc1ccc(Cl)cc1` in VDR inh = -8%
`CCOC(=O)c1cccc(NC(=O)c2cc(S(=O)(=O)N3CCCC3)cn2C)c1` in VDR inh = 11%
`Cn1c(NCCN(CCO)CCCc2ccc([N+](=O)[O-])cc2)cc(=O)n(C)c1=O` in VDR inh = 50µM*!
`O=P(O)(CP(=O)(c1ccccc1)c1ccccc1)c1ccccc1O` in VDR inh = -10%
`CCOc1ncccc1C(=O)N1CCN(S(=O)(=O)c2ccccc2)CC1` in VDR inh = 14%
`Nc1nc(N)nc(-c2ccccc2-c2nc(N)nc(N)n2)n1` in VDR inh = -14%
`COc1ccc(Cc2nnc(NC(=O)Nc3ccccc3)s2)cc1OC` in VDR inh = -10%

Continued:
VDR inh | SMILES
-3% | CCOc1ccc2ncc(S(=O)(=O)c3ccccc3)c(N3CCN(c4ccccc4)CC3)c2c1
5% | COCCNC(=O)CCn1c(=O)c2cc(OC)c(OC)cc2n(CC(=O)Nc2ccc(F)c(Cl)c2)c1=O
-3% | COc1ccc(CSc2nc3ccncc3n2CC(=O)Nc2ccc(C)c(F)c2)cc1
-12% | O=C(NCCN1CCOCC1)C1CC(=O)N(c2ccc(Cl)cc2)C1 (stereo unspecified)
4% | CS(=O)(=O)N1CCC(N2CCN(Cc3ccc(F)cc3)C(=O)C2=O)CC1
5% | COc1ccccc1C(=O)N1CCN(S(=O)(=O)Cc2ccccc2)CC1
4% | CCOc1ccc(NC(=O)c2oc3ccccc3c2NC(=O)COc2cccc(OC)c2)cc1
-12% | Cc1ccc(-c2csc(NC(=O)c3c(C)noc3C)n2)cc1C
-1% | COc1ccc(NC(=O)Nc2cc(C(C)(C)C)on2)cc1OC
-14% | CCCCN1C(=O)C(O)=C(C(C)=O)C1c1ccccc1[N+](=O)[O-] (stereo unspecified)
4% | CCc1ccc2occ(CC(=O)Nc3c(C(=O)Nc4ccc(OC)cc4)oc4ccccc34)c2c1
-26% | Cc1nc(S(=O)(=O)c2ccc(Cl)cc2)nc2c1CCC2
? | Clc1ccccc1C(c1ccccc1)(c1ccccc1)n1ccnc1
-16% | O=c1c(-c2ccccc2)nc2cnc(N3CCOCC3)nc2n1C1CC1
-9% | Cc1cccc(C)c1NC(=O)CCS(=O)(=O)c1ccc2c(c1)n(C)c(=O)c(=O)n2C
9% | COc1ccc(CCN=C(N)NS(=O)(=O)c2ccccc2)cc1
? | O=C(O)CCc1ccc(-c2ccc(Br)cc2)o1
-16% | O=C(Nc1ccc(OC(F)(F)F)cc1)c1[nH]ncc1[N+](=O)[O-]
2% | Cc1cccn2c(=O)c(/C=C(\C#N)S(=O)(=O)c3ccccc3)c(N3CCN(Cc4ccccc4)CC3)nc12
-8% | COC(=O)c1n[nH]n(-c2ccccc2)c1=O
-14% | CCOC(=O)NC(=O)C(=CNc1cccc(C)c1)C(=O)NC(=O)OCC
-8% | O=C(CCN1C(=O)COc2ccccc21)NCCCN1CCc2ccccc2C1
17% | CCOC(=O)c1c(C(F)(F)F)nc2ncccn12
-29% | CCOC(=O)c1c(N)sc(C(C)=O)c1C

3 structures already listed, sorted by molecular weight, ascending.
VDR inh | SMILES
-29% | CCOC(=O)c1c(N)sc(C(C)=O)c1C
-12% | Cc1ccc(S(=O)(=O)CC(C)(O)CS(=O)(=O)c2ccc(C)cc2)cc1
-2% | COc1cc(C(=O)NCC(=O)NNC(=O)C2COc3ccccc3O2)cc(OC)c1OC (stereo unspecified)

Next part
VDR inh | SMILES
-7% | C=CCn1c(-c2cccnc2)n[nH]c1=S
-9% | CC1CCC2(CC1)NC(=S)N(c1ccccc1)N2 (stereo unspecified)
7% | CCOc1ccc(-n2ccc(=O)c(C(=O)Nc3ccc(S(=O)(=O)Nc4ncccn4)cc3)n2)cc1
-2% | CC(=O)Nc1cc(ON=C(C)C)cc([N+](=O)[O-])c1
-4% | CN(Cc1ccccc1)C(=O)Nc1ccccc1
-6% | CCCCCCCC(=O)Nc1cc(C(=O)NCc2ccc(C)cc2)ccc1N1CCC2(CC1)CC(c1ccccc1)=NO2
7% | Cc1ccccc1OC(C)C(=O)NC1CCCC1 (stereo unspecified)
11% | CC1Cc2ccccc2N1C(=O)CCS(=O)(=O)c1cccc2nonc12 (stereo unspecified)
4% | COc1ccccc1CN(Cc1nc2ccccc2c(=O)[nH]1)C(=O)Nc1ccccc1
-13% | Cc1ccc(S(=O)(=O)N2CCCC(C(=O)Nc3ccc(NC(=O)c4ccccn4)cc3)C2)cc1 (stereo unspecified)
1% | O=C(CC1(CC(=O)N2CCOCC2)CCCC1)Nc1ccc(F)cc1
-5% | CCOc1ccc(NC2CCN(C(C)=O)CC2)cc1

Grouped by structure: the entries above containing two or more sulfur atoms
VDR inh | SMILES
5% | Cc1nnc(Sc2cc(C(=O)NCCCOC(C)C)c3ccccc3n2)s1
25% | CCN(CC)S(=O)(=O)c1cccc(-c2nnc(SCC(=O)N3CCC(C(=O)O)CC3)n2N)c1
-12% | Cc1ccc(S(=O)(=O)CC(C)(O)CS(=O)(=O)c2ccc(C)cc2)cc1
19% | CCc1nnc(NC(=O)CSc2ncc(-c3ccccc3)n2CC)s1

Further results follow.
VDR inh | SMILES
2% | O=C(c1cc(COc2ccc(F)cc2Cl)on1)N1CCCCC1c1cccnc1 (stereo unspecified)
-2% | COc1ccc(-c2cc3ncc(-c4ccccc4)c(N)n3n2)cc1
-1% | CCOC(=O)N1CCN(S(=O)(=O)N2CCCC(C(=O)NCCCN3CCC(C)CC3)C2)CC1 (stereo unspecified)
-23% | COC(=O)C1=C(C#N)NC(C)=C(C(=O)OC(C)C)C1c1cccc([N+](=O)[O-])c1 (stereo unspecified)
-3% | Cc1ccc2nc(-c3ccsc3)c(Nc3ccccc3C)n2c1
10% | O=C(C1CCN(c2nc3nonc3nc2N2CCCCC2)CC1)N1CCOCC1
2% | CCOC(=O)[C@@H]1[C@H]2COc3cc(OC)ccc3[C@H]2N2C(=O)N(c3cccc(C)c3)C(=O)[C@]12C
4% | CC(=O)c1cc(-c2ccc(F)cc2)n(CCC(=O)Nc2cccc(C)n2)c1C
-12% | OC(COc1ccc(CNCCc2ccc(C(F)(F)F)cc2)cc1)CN1CCCCC1 (stereo unspecified)
8% | COc1ccc(CNC(=O)COC(=O)c2cc3ccccc3o2)cc1
5% | O=C(COc1ccc2ccc(=O)oc2c1)NCCCn1ccnc1
2% | O=C(CSc1nc(C(F)(F)F)cc(=O)[nH]1)NCC1CCCO1 (stereo unspecified)
-12% | CN(C)S(=O)(=O)N(CC(=O)N(Cc1ccccc1)Cc1ccccc1)c1ccccc1
1% | C(=C\CSc1nnnn1-c1ccccc1)/CSc1nnnn1-c1ccccc1
-7% | COc1cc(OC)cc(C(=O)NCC(=O)Nc2ccc(-c3ccccc3)cc2)c1
7% | CC(C)(C)OC(=O)NC(CNCc1ccccc1)Cc1ccccc1 (stereo unspecified)
8% | CCCCNC(=O)CCn1c(=O)c2ccccc2n(Cc2cccc(Cl)c2)c1=O
-15% | COc1ccc(OC)c(CNC(=O)C2CCCN(S(=O)(=O)N3CC(C)CC(C)C3)C2)c1 (stereo unspecified)
7% | O=c1c2ccccc2nc(SCc2nc3ccccc3s2)n1Cc1ccco1
4% | NC(=O)C(c1ccccc1)C1CCCC1 (stereo unspecified)
7% | Cc1ccc(Cn2c(SCC(N)=O)nc3c2c(=O)n(C)c(=O)n3C)cc1
-4% | O=C(Cc1ccccc1[N+](=O)[O-])Nc1ccc2c(c1)OCCO2
15% | CCCc1cc(=O)n2nc(N3CCC(C(=O)Nc4cccc(C(C)=O)c4)CC3)sc2n1
4% | CN1CCN(C(=S)c2ccc(OCC(=O)Nc3cccc(C(F)(F)F)c3)cc2)CC1
-16% | CC(=O)Nc1cccc(Oc2ccc(-c3noc(C)n3)cc2)c1
11% | COc1ccc(-c2nc3scc(CCNC(=O)c4cc(OC)cc(OC)c4)n3n2)cc1
0% | Cn1c(=O)c(=O)n(C)c2cc(NS(=O)(=O)c3ccc(Br)cc3)c(Cl)cc21
14% | CCOc1ccc(N2CC(c3nc4ccccc4n3CC(C)C)CC2=O)cc1 (stereo unspecified)
25% | CC(C)NC(=O)NC(=O)CSc1nncs1
-13% | COc1ccc(OCC(O)CNC(=O)Nc2ccc(F)cc2)cc1 (stereo unspecified)
13% | COc1ccc2[nH]c(=O)c(CN(CC3CCCO3)C(=S)Nc3cccc(C)c3)cc2c1 (stereo unspecified)
-16% | CCOC(=O)C1CCCN(c2c(NCCN3CCCCC3CC)c(=O)c2=O)C1 (stereo unspecified)
8% | O=C(Nc1ccccc1)c1ccc(NC(=O)c2cccs2)cc1
-8% | Cc1ccc(C(=O)OCc2cn3ccccc3n2)cc1
-15% | O=C(NCC1CCOCC1)C1CCC(=O)N(Cc2cccc(C(F)(F)F)c2)C1 (stereo unspecified)
